High-throughput results as filed in PubChem.
Mtb growth – M. tuberculosis H37Rv growth inhibitors, H37Rv strain (AID 1626). M. tuberculosis H37Rv growth inhibition; higher % means a stronger effect. one-dose inhibition, % at 10 µM; IC50 in µM for titrated hits. 0.95% of 220,000 active;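 active = confirmed in a dose series; inconclusive = inhibition above 80% but not taken into the dose series; inactive = below 80% or under 30% at every dose of the series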;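 also: bacteria incubated seven days before Alamar blue readout; 0% = bacteria only wells and 100% = bacteria with antibiotic wells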
YopH PTP inh – YopH tyrosine phosphatase inhibitors, primary screen, biochemical, fluorescence Ex485/Em525 | YopH tyrosine phosphatase [Yersinia enterocolitica] | inhibition, %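 (about 10 µM by stock and volumes)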 | 0.16% of 140,000 active | AID 898, 2007;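 active = inhibition of 50% or more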;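 also: controls were vehicle for no effect and minimum signal wells for full effect; inactives centre near -20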
Arbovirus anti – antivirals against arbovirus infection, primary screen, cell-based, full library, 10K replicate subset; arbovirus infection cell-based antiviral screen; inhibition, % at 10 µM; 0.37% of 200,000 active; AID 1251, 2008;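 active = inhibition from about 30%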;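 also: bluetongue infection of BSR cells; cell survival read as ATP light after 72 h; 0% = infected wells without compound and 100% = uninfected wells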
Mtb bLac sens – beta-lactam sensitization of Mtb H37Rv, H37Rv; M. tuberculosis H37Rv growth with meropenem, percent inhibition; hits of this screen are not shown here; inhibition, % at 25 µM; 0.27% of 330,000 active;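 active = about 74% or more and at least 40 points above the plate without the antibiotic, then above 30% in a dose series; inconclusive = first-round hits that could not be retested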;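 also: growth measured after seven days incubation then overnight dye step; 0% = bacteria only wells and 100% = bacteria with antibiotic; twin plates without the antibiotic show which effects depend on it; some results filed as inactive read as strong as hits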
RecA intein inh – Mtb RecA intein splicing inhibitors, primary screen, biochemical, fluorescence, HTS | cell-free RecA intein splicing | 0.75% of 290,000 active | inhibition, %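 (about 9 µM by stock and volumes)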 | Protein RecA (Mycobacterium tuberculosis (strain ATCC 25618 / H37Rv)), P9WHJ3 | AID 2221, 2009; in the data active = inhibition above about 30%; inconclusive = no clear call, values can overlap the other calls;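 also: 0% = vehicle wells and 100% = reference inhibitor control wells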
Target sequence (P9WHJ3 whole entry, looked up): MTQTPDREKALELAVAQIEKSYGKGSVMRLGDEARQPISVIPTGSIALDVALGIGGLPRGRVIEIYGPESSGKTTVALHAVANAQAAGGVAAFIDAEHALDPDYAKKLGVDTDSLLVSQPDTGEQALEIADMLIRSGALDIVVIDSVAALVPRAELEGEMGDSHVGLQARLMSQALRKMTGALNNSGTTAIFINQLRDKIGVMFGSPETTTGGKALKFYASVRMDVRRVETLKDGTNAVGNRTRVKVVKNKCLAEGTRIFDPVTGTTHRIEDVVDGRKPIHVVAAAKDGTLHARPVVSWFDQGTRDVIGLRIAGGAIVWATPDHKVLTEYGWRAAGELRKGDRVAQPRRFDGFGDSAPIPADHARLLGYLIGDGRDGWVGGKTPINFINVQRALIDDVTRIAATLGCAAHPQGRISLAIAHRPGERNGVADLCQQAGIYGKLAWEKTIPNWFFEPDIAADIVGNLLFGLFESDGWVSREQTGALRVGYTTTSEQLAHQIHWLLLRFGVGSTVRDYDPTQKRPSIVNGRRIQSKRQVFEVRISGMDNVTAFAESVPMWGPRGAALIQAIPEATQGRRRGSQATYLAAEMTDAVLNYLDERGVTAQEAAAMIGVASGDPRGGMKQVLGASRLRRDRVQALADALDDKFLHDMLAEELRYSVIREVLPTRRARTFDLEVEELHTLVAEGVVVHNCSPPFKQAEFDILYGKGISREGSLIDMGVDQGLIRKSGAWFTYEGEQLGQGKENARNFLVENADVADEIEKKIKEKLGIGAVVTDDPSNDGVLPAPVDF
Active calls of the source: *; ? = inconclusive; / = not tested or not shown. The list is partial; count on the stated rates, not on these rows.

Fields – YopH PTP inh	Mtb growth	RecA intein inh	Mtb bLac sens	Arbovirus anti
- Cc1nc(CSc2n[nH]c(=O)n2-c2cccc(F)c2)cs1
  /	-6%	0.2	-4	/
- CCOC(=O)C(O)(c1cn(C)c2ccccc12)C(F)(F)F (configuration not stated)
  -29	1%	0.3	-9	2
- Cc1ccc(-c2nc(-c3cccnc3)sc2CC(=O)Nc2ccc3nc(C)sc3c2)cc1
  -20	9%	-3.4	0	-17
- CCN1CCCC1CNC(=O)COc1cc(=O)n(C)c2ccccc12 (configuration not stated)
  -45	-6%	-2.8	7	4
- O=C(COc1ccc(S(=O)(=O)N2CCOCC2)cc1)NCc1ccccn1
  /	/	-0.9	-9	/
- N=c1scc(-c2ccccc2)n1/N=C/c1ccco1
  -28	0%	-1.2	49	-9
- C=C1CCc2c([nH]c3ccc(OCC(C)C)cc23)C1=O
  /	/	-2.5	87	/
- Cc1cc(-c2nnc(SCC(=O)Nc3cccc(Cl)c3)n2N)n[nH]1
  /	/	-2.4	-6	/
- C=CCOC(=O)C1=C[C@@H](c2ccc(C(F)(F)F)cc2)[C@H](CCCO)[C@@H](OCC)O1
  /	-5%	-1.0	8	3
- COc1ccc(OCCCC(=O)OC(C)C(=O)Nc2ccc(S(N)(=O)=O)cc2)cc1 (configuration not stated)
  /	/	-1.0	-11	/
- CCc1c(C)nc2ncnn2c1NCCc1ccc(OC)c(OC)c1
  -21	-4%	0.1	-5	4
- CCOC(=O)c1[nH]c2ccc(F)cc2c1NC(=O)c1ccccc1C(=O)O
  /	/	-5.7	8	/
- C/C=C(\C)CN1CCN(c2ccccc2)CC1
  -11	-6%	-0.7	-10	-14
- CCOC(=O)c1sc(NC(=O)C(CC)OC(=O)C(CC(C)C)NC(=O)c2ccccc2)nc1C (configuration not stated)
  -1	-9%	4.1	-7	2
- C/C=C/c1ccc(OCc2cc(=O)n3cc(C)ccc3n2)c(OC)c1
  /	-13%	-2.7	6	/
- COc1ccc(C(=O)N2CCN(c3ccc(N4CCOCC4)nn3)CC2)cc1OC
  /	/	-8.6	-3	/
- O=C1OCC2=C1C(c1ccc(F)cc1)CC(=O)N2c1ccccc1 (configuration not stated)
  /	1%	-0.3	-2	0
- Cc1cc(S(=O)(=O)NCC2CC2)c(Cl)cc1Cl
  /	/	-1.1	2	/
- COc1ccc(CCNC(=O)C2CC3Cn4c(nc5ccccc54)C3N2Cc2ccccc2)cc1 (configuration not stated)
  /	0%	-1.7	-5	/
- O=C(COC(=O)CCC1CCCC1)Nc1ccc(Cl)cn1
  9	-7%	-1.5	2	0
- CCOC(=O)N1CCC(NC(=O)C(NC(=O)C2CCC(C)CC2)C(C)CC)CC1 (configuration not stated)
  17	/	/	/	-11
- CCC(C)c1ccc(OCC(=O)Nc2ccc(CN3CCOCC3)cc2)cc1 (configuration not stated)
  /	/	1.2	75	/
- CN1CCN(C(=O)c2ccc(OCCOc3ccccc3)cc2)CC1
  /	/	-2.0	-13	/
- O=C(CN1C(=O)NC2(CCCC2)C1=O)NCC1CCCO1 (configuration not stated)
  /	3%	-4.3	2	-1
- CN1CCC(CNC(=O)Nc2csc3ccccc23)CC1
  /	-4%	-1.0	-12	/
- O=C(C#Cc1ccccc1)NCc1ccccc1F
  /	/	-0.1	5	/
- O=C(Nc1nccs1)c1ccc(Br)c(S(=O)(=O)N2CCOCC2)c1
  2	-9%	0.7	-4	3
- O=C(NCCCCNC(=O)c1ccc(Br)cc1)c1ccc(Br)cc1
  /	/	0.3	1	/
- CCOC(=O)Cc1csc(NC(=O)c2ccc(NC(C)=O)cc2)n1
  28	1%	-3.8	-7	1
- COc1cc(C2N(c3ccc(F)cc3)C(=O)C3CCCN32)cc(OC)c1OC (configuration not stated)
  -31	2%	1.7	-3	7
- O=C1CS/C(=N/N=C/c2ccccc2OS(=O)(=O)c2ccccc2)N1
  -9	-6%	1.3	21	5
- CC(C)CC(=O)Nc1sc2c(c1C#N)CC(C)(C)NC2(C)C
  0	-5%	2.0	0	2
- O=C(NCc1ccc(F)cc1)C(C(=O)NCc1ccc(F)cc1)c1ncc(C(F)(F)F)cc1Cl
  /	-2%	-0.2	-4	-1
- O=C(c1cc([N+](=O)[O-])ccc1Cl)N1CCN(Cc2ccccc2)CC1
  /	/	0.7	-12	/
- COc1ccccc1CNS(=O)(=O)c1csc(C(N)=O)c1
  /	/	0.1	2	/
- COC(=O)Cc1c(C)c2ccc(OCC(=O)NCc3ccc4c(c3)OCO4)cc2oc1=O
  -26	5%	0.3	3	3
- COc1ccc(Br)cc1/C=N/N1CCN(Cc2ccccc2)CC1
  /	-3%	-0.3	-4	/
- O=C(Cn1c(=O)oc2ccccc21)Nc1nc(-c2ccccc2)cs1
  -35	-2%	-2.0	-6	-3
- COc1ccc(-n2cc(-c3ccc(OC)c(OC)c3)[nH]c2=S)cc1
  /	1%	-1.9	13	-5
- Cc1ccc(C(=O)C(SC(C)(C)C)n2cncn2)cc1 (configuration not stated)
  /	/	-0.3	0	/
- O=S(=O)(NCC1CCCO1)c1cccc(S(=O)(=O)N2CCCC2)c1 (configuration not stated)
  -49	-14%	-1.7	-1	-3
- COC(=O)C1=C(NC(=O)c2ccccc2[N+](=O)[O-])CCS1
  /	0%	1.1	-2	-3
- COc1ccc(S(=O)(=O)N2CCN(C3CCCC(C)C3)CC2)cc1 (configuration not stated)
  /	/	2.0	8	/
- COCCNC(=O)c1cc2nc3c(c(C(F)(F)F)n2n1)CCc1ccccc1-3
  /	-1%	/	3	-2
- c1ccc(C2=Nn3c(nnc3-c3ccccn3)SC2)cc1
  -17	-4%	3.4	-7	1
- COCC(C)NCc1ccc(C)cc1C (configuration not stated)
  -18	3%	4.2	1	7
- COC(=O)C1C(=O)c2c([nH]c(C(=O)OCC3CCCO3)c2C)CC1C (configuration not stated)
  -41	-1%	0.8	7	-2
- COc1ccc(CNC(=O)C2CCN(c3nn4c(=O)cc(C)nc4s3)CC2)cc1
  /	/	1.5	-2	/
- CC1=C(OC(=O)c2ccc(Br)cc2)C(C)(C)C(c2ccccc2)OC1=O (configuration not stated)
  -10	2%	5.0	-3	8
- COCCn1c(-c2ccc(Br)cc2)csc1=Nc1cccnc1
  /	5%	10	-4	10
- O=C(NNc1cccc(Cl)n1)c1cccnc1Cl
  -24	5%	-2.7	1	2
- COc1ccc2cc(C(=O)O)n(CC(=O)c3ccccc3)c2c1
  /	/	-3.4	2	/
- CCOC(=O)c1nn(-c2ccc(Cl)cc2C)ccc1=O
  /	/	-0.5	-7	/
- O=c1c(N2CCOCC2)c(N2CCOCC2)c1=O
  /	5%	-0.5	-6	/
- CCOC(=O)CC(=O)CSc1nc2ccccc2c(=O)n1-c1ccc(C(=O)N2CCOCC2)cc1
  -19	-5%	7.2	-11	3
- COCCNC(=O)C(c1ccc(C)o1)N(C(=O)c1snc(C(N)=O)c1N)c1cc(C)cc(C)c1 (configuration not stated)
  -43	4%	-1.1	-3	-6
- CCCc1cc(C(=O)OC)c(NC(=O)c2cc(C)on2)s1
  -23	3%	3.2	8	-6
- COc1ccccc1C(=O)Nc1ccnn1C1CCN(C(=O)c2cnsn2)CC1
  /	/	-3.1	-4	/
- COC(=O)C1=C(C(=O)OC)[C@@H]2N(C)c3ccc(OC)cc3[C@@]23C[C@@H](C(=O)OC)N=C3N1
  /	-13%	-1.2	3	/
- CCOC(=O)C1=C(COC(=O)c2ccc(OC)c(OC)c2OC)NC(=O)NC1C (configuration not stated)
  /	/	1.3	-1	/

Going on with the list:
Fields – YopH PTP inh	Mtb growth	RecA intein inh	Mtb bLac sens	Arbovirus anti
- CN(CC(=O)Nc1ccc(F)cc1)C(=O)c1cccc(S(=O)(=O)N2CCN(c3ccc(F)cc3)CC2)c1
  /	/	1.7	0	/
- Cc1cc(C)n(-c2ccc(C(=O)OCC(=O)c3c(N)n(C)c(=O)n(C)c3=O)cc2)n1
  -46	-8%	/	-3	-1
- CC(C)(C)NS(=O)(=O)c1ccc(N2C(=O)c3ccccc3C2=O)cc1
  0	-12%	4.5	-3	6
- COc1ccc2nc(SCC(=O)O)nc(C)c2c1
  -20	-5%	/	5	11
- COc1cccc(CNC(=O)C2CCN(S(=O)(=O)c3ccccc3)CC2)c1
  -45	0%	1.5	4	0
- CCN(CC(=O)Nc1ccccc1OC)CC(=O)Nc1c(Cl)ccc(C)c1Cl
  /	-2%	2.8	-5	2
- Cc1[nH]c2ccccc2c1/C=N/NC(=O)c1cccc(S(=O)(=O)Nc2cccc(C(F)(F)F)c2)c1
  /	-5%	-5.6	-9	-13
- Cc1cc(/C=C2\C(=N)N3N=C(CC(=O)N4CCOCC4)SC3=NC2=O)c(C)n1Cc1ccccc1
  /	-12%	/	-1	/
- C=CCC(C)(NCc1ccccc1)c1ccc(C)cc1 (configuration not stated)
  -38	0%	-0.7	0	1
- Cc1ccc(Cl)cc1N1CCN(S(=O)(=O)c2cn(C)cn2)CC1
  /	/	-1.0	-4	/
- CC(NC(=O)Cc1ccccc1)C(c1ccccc1)N1CCOCC1 (configuration not stated)
  /	0%	-0.8	-3	13
- COC(=O)Cn1c(N2CCCC2)nc2c1c(=O)n(C)c(=O)n2C
  /	/	4.3	-5	/
- CCc1ccccc1NC(=O)c1cccs1
  -32	3%	5.8	?	0
- CC1C(=O)N2CCCc3cc(S(=O)(=O)N4CCC(C(N)=O)CC4)cc1c32 (configuration not stated)
  /	/	-1.5	-11	/
- CC(=O)Nc1ccc(N2CCN(c3ccc(F)cc3)CC2)cc1
  /	/	-1.0	-5	/
- COc1cccc(OC(=O)CSc2nnc(-c3ccccc3Br)o2)c1
  -18	-10%	74*	-9	10
- Cc1cc(Cl)ccc1C(=O)C1CCCN(C(=O)c2cccnc2C)C1 (configuration not stated)
  /	/	2.5	5	/
- COC(C/C=C\[C@@H](O)[C@H](C)OCc1ccccc1)OC
  /	5%	0.3	-9	/
- O=S(=O)(NCCN1CCOCC1)c1ccc2c(c1)OCCO2
  /	-1%	-0.4	-4	-1
- O=C(CSc1nnc(C23CC4CC(CC(C4)C2)C3)o1)Nc1ccc(N2CCOCC2)c(Cl)c1
  -9	8%	-0.7	7	-17

Another view of part of the listing above:
molecule	YopH PTP inh	Mtb growth	RecA intein inh	Mtb bLac sens	Arbovirus anti
COc1ccc2nc(SCC(=O)O)nc(C)c2c1	-20	-5%	/	5	11
Cc1ccc(-c2nc(-c3cccnc3)sc2CC(=O)Nc2ccc3nc(C)sc3c2)cc1	-20	9%	-3.4	0	-17
Cc1cc(/C=C2\C(=N)N3N=C(CC(=O)N4CCOCC4)SC3=NC2=O)c(C)n1Cc1ccccc1	/	-12%	/	-1	/

(more compounds)
Fields – YopH PTP inh	Mtb growth	RecA intein inh	Mtb bLac sens	Arbovirus anti
- COc1ccc(OC)c(C(c2nnnn2CCC(C)C)N2CCN(C(=O)c3ccco3)CC2)c1 (configuration not stated)
  -36	10%	3.2	2	-13
- Cc1ccc(S(=O)(=O)Nc2ccc(NC(=O)Nc3ccc(F)cc3F)cc2)cc1
  -10	4%	-4.3	13	2
- COc1ccc(C(C(=O)NC2CCCCC2)N(C(=O)c2sc(C)nc2C)c2ccc(OC)cc2)cc1 (configuration not stated)
  -2	79%	1.4	-10	-1
- Cc1nonc1NC(=O)N1CCCC1
  5	-9%	-1.9	5	3
- Cc1ccccc1-n1cnc2cc(NCc3cccs3)ccc21
  -11	-1%	8.3	75	-13
- Cc1ccc(CN2CCC(N3CC(C)OC(C)C3)CC2)cc1 (configuration not stated)
  /	/	-2.7	1	/
- Cc1cccc(NC(=O)c2oc3ccc(S(=O)(=O)N4CCOCC4)cc3c2C)c1C
  -19	2%	0.1	-10	-2
- O=C(CS(=O)(=O)Cc1ccccc1)Nc1ccc(S(=O)(=O)N2CCCCCC2)cc1
  1	6%	1.1	4	-17
- Cc1cc(C)cc(Oc2nc3ccccn3c(=O)c2/C=C(\C#N)C(=O)NC2CCS(=O)(=O)C2)c1 (configuration not stated)
  /	2%	-21	9	/
- CCS(=O)(=O)N1CCC(NC(C)=O)(c2ccccc2)CC1
  -24	-10%	-1.8	-3	3
- Cc1cc(C)n(CCNC(=O)C2CCC(=O)N(CCc3cccc(F)c3)C2)n1 (configuration not stated)
  /	/	0.1	-12	/
- N#C/C(=C\c1ccccc1OCc1ccc(C(=O)O)cc1)c1ccccc1
  /	-2%	1.8	-1	3
- CCOc1cc(NS(=O)(=O)c2ccc(NC(C)=O)cc2)c(OCC)cc1NC(=O)c1cccs1
  -21	-3%	-2.8	5	-9
- Cn1c(CNC(=O)CCNC(=O)c2ccc(Br)cc2)cc(=O)n(C)c1=O
  /	/	-0.7	-4	/
